miR-21 reporter: miR-21 reporter, rising signal | HeLa miR-21 FLuc reporter, luciferase, 48 h | Potency, µM (titrated, usually from 38.3 µM), for the others: top-dose reporter change, positive = more light | 340,000 tested, under 10 active; active = well fitted rising curve with a large enough effect; inconclusive = small, poorly fitted or top-dose-only effect; inactive = no such curve, though single readings can be large or run the other way;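 further: % of control where 0% means no effect; miR-21 action dims this reporter so a rising signal means less miR-21 action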
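HeLa cells stably expressing CMV-driven firefly luciferase with a downstream miR-21 binding sequence, endogenously expressing miR-21, were treated with titrations (up to about 40uM final) for 48 hours at 37 degree Celsius. Luciferase luminescence was read after lysis.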
GLA inh pH 4.5: inhibitors of human alpha-galactosidase A at pH 4.5. activity change, negative = inhibition, % at 105 µM. 230,000 tested, under 10 active. P06280. purified enzyme, 4-MU-alpha-Gal fluorescence, pH 4.5. AID 1467; inconclusive = small, poorly fitted or top-dose-only inhibition, or a rising curve; inactive = flat fitted curve, though single readings scatter; no compound was filed as active;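 further: 0% = full activity with enzyme and -100% = basal without enzyme; dose as in the result columns while the protocol names 77 µM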
Target sequence (P06280 whole entry, looked up): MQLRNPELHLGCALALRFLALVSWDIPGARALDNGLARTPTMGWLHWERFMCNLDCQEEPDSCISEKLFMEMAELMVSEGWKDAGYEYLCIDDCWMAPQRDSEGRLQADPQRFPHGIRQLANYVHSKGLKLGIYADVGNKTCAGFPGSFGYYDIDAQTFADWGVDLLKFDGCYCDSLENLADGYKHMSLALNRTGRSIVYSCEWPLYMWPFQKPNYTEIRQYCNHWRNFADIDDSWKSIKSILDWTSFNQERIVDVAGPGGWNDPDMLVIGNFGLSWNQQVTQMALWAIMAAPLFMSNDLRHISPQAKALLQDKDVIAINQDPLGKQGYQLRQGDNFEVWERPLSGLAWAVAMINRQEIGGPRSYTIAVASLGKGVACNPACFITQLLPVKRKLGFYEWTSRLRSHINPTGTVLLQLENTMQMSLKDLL
Rango-impB inh: prevents formation of the Rango-importin beta complex. Q14974. Potency, µM (highest dose often 92.2 µM), inactives show at the highest dose inhibition of complex formation. actives 0.031% (n = 340,000). Rango CFP/YFP FRET sensor + importin beta, 45 min; active = rising FRET ratio curve, often small or poorly fitted; inconclusive = mostly compound fluorescence or quenching in the first reads; inactive = flat curves in all reads;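 further: potency means the concentration at half of the fitted maximal effect; 0% = DMSO wells and 100% = buffer wells lacking importin beta; nearly all actives have a fitted effect of over 15% in size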
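FRET biosensor (snurportin 1 IBB flanked by EYFP and cerulean), 50 nM, with compound 5 min, then 0.125 microM importin beta in PBS, 1 mM DTT, 0.02% Tween-20, 0.1% BSA. CFP/YFP ratio read after 45 min at room temperature; pre-read flags interference.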
Rango release inh: inhibitors of RanGTP-induced Rango-importin beta complex dissociation. O95149+P62826. Biochemical FRET Rango-importin beta, RanGTP-induced dissociation. Potency, µM (series often up to 46.1 µM), without a hit: at the highest dose activity change, negative = inhibition. actives 0.071% (n = 340,000). AID 540253; active means falling FRET ratio curve, often poorly fitted, with flat reads before Ran was added; inconclusive means other falling curves, or compound fluorescence or quenching; inactive means flat or rising ratio curve;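 further: potency means the concentration at half of the fitted maximal effect; % of control where 0% means no effect; nearly all actives have a fitted effect of over 45% in size; -100% = wells without RanGTP and RCC1; the record marks most hits as doubtful in a second field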
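Recombinant Rango FRET biosensor (EYFP–snurportin 1 IBB–cerulean CFP10) at 0.1 uM premixed with 0.25 uM importin beta in PBS, 1 mM DTT, 0.02% Tween-20, 0.1% BSA. Compound added 5 min; RanGTP-RCC1 (0.6 uM Ran, 2 mM GTP, 0.2 uM RCC1) then triggers release, read at 45 min.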
* = called active by the depositor; ? = inconclusive; nt = no result given; & = joins results of further samples. Not all compounds are listed; the hit share may differ from the screen's.

GLA inh pH 4.5 | Rango-impB inh | Rango release inh | miR-21 reporter | SMILES
5 | 0.8% | -13% | -1% | CC(C)(C)C(=O)CN1C2=NCCN2c2ccccc21
3 | 0.3% | 11% | -6% | Cn1c(NC(=O)c2ccc(C(C)(C)C)cc2)cc(=O)n(C)c1=O
-11 | -2.0% | -8% | -3% | COc1ccc(OC)c(-c2csc(NC(=O)Cc3cccs3)n2)c1
-7 | -0.9% | -6% | 2% | COC(=O)c1c(C(=O)OC)c2ccncn2c1Cl
-1 | -1.0% | -1% | 3% | O=C(Oc1cccnc1)c1ccccc1[N+](=O)[O-]
nt | 5.8% | -6% | -2% | O=c1c([N+](=O)[O-])cccn1Cc1cccc(Br)c1
-7 | 0.5% | -11% | -4% | O=C(O)c1ccccc1OCc1ccccc1Br
1 | -0.4% | 13% | -13% | Cc1cccc(NC(=O)COc2cccc3c2CCN(Cc2ccccc2)C3=O)c1C
-2 | 2.7% | -7% | -1% | Cc1ncc([N+](=O)[O-])n1CC(=O)Nc1ccccc1
-20 | ? | 1% | 0% | Cn1cc([N+](=O)[O-])c(C(=O)NCc2ccco2)n1
2 | -0.7% | 1% | -9% | COc1cccc(/C=N/n2c(=S)n(C)c3ccccc32)c1OC
nt | -0.4% | ? | 0% | CCOC(=O)Nc1ccc(N2CCOCC2)c(S(=O)(=O)N2CCOCC2)c1

2 compounds from above, showing only miR-21 reporter:
SMILES	miR-21 reporter
COc1cccc(/C=N/n2c(=S)n(C)c3ccccc32)c1OC	-9%
CCOC(=O)Nc1ccc(N2CCOCC2)c(S(=O)(=O)N2CCOCC2)c1	0%

(more compounds)
GLA inh pH 4.5 | Rango-impB inh | Rango release inh | miR-21 reporter | SMILES
3 | 1.4% | 6% | -8% | O=C(O)/C=C/C(=O)NCc1ccccc1
-2 | 4.1% | 32% | -10% | Cc1c(-c2ccccc2Cl)nc2ccccc2c1C(=O)O
-13 | -1.5% | 0% | 1% | O=C1N(S(=O)(=O)c2ccccc2F)C(=O)C2(CCCC2)N1S(=O)(=O)c1ccccc1F
nt | 3.0% | 2% | nt | O=C(CSc1nnc(-c2ccccc2F)n1C1CCCCC1)Nc1cc(C(=O)O)ccc1Cl
nt | 1.1% | 8% | nt | CC(C)C(NC(=O)c1cccc(S(=O)(=O)N2CCOCC2)c1)C(=O)NCc1ccc(Cl)cc1 (stereo not given)
nt | 3.7% | 6% | -2% | Cc1ccc(C)c(C(C)NC(=O)C2CCCC2)c1 (stereo not given)
nt | -0.7% | 4% | nt | COc1ccccc1OCCC(=O)Nc1ccc2c(c1)OCO2
5 | 3.9% | 9% | 2% | Cc1ccccc1-n1c(SCC(=O)NCc2cccs2)nc2ccccc2c1=O
0 | 6.8% | 19% | 0% | O=C(O)C1CC(=O)n2c(nc3ccccc32)S1 (stereo not given)
7 | nt | nt | -9% | CCCCn1c(=S)[nH]c2ccc(N3CCOCC3)cc2c1=O
8 | 0.8% | -10% | -16% | O=C(Cn1nnc(-c2ccc(F)cc2)n1)N1CCCCC1
nt | 0.3% | -2% | nt | O=C(NC(Cc1ccc(O)cc1)C(=O)O)c1ccc2c(c1)OCO2 (stereo not given)

(further entries)
GLA inh pH 4.5 | Rango-impB inh | Rango release inh | miR-21 reporter | SMILES
11 | 0.1% | 1% | 6% | Cc1ccccc1CS(=O)(=O)CCC(=O)NCCCN1CCN(c2ccccc2F)CC1
-7 | -3.3% | 5% | -3% | CCN(CC)CCN(C(=O)Cn1nnc(-c2ccc(C)o2)n1)C(C(=O)NC(C)(C)C)c1cccs1 (stereo not given)
6 | nt | nt | ? | Oc1c(C(c2cccs2)N2CCN(c3ccccc3)CC2)ccc2cccnc12 (stereo not given)
-5 | 0.5% | -15% | 7% | COCCCNC(=O)CSc1nc2ccccc2c(=O)n1Cc1ccc2c(c1)OCO2
nt | 3.1% | 16% | -18% | O=C(Nc1cccs1)Nc1cccnc1Cl
-13 | -2.8% | -16% | -3% | O=C(CCCn1c(=O)c2ccccc2n(CC(=O)NCc2ccco2)c1=O)NCc1ccco1
nt | 3.0% | 14% | -2% | O=C(CN(CC1CCCO1)C(=O)CNS(=O)(=O)c1ccccc1)NCCc1ccccc1 (stereo not given)
2 | 0.0% | 5% | 0% | CCO[C@H]1OC(C(N)=O)=C[C@@H](c2coc3ccccc3c2=O)[C@@H]1CCCO
2 | 1.2% | -16% | 2% | C/C(=N\NC(N)=S)C1(C)CC2(CC(C)(C)OC2=O)C(=O)O1 (stereo not given)
9 | -1.9% | -7% | 3% | CC(=O)N1CCN(S(=O)(=O)c2ccc(C)cc2)C1c1ccc(N(C)C)cc1 (stereo not given)
3 | 0.9% | 1% | 21% | Cn1c(N2CCN(C(=O)Nc3ccc(C(F)(F)F)cc3)CC2)nc2ccccc21
nt | -2.9% | 4% | nt | COc1ccccc1N(CC(=O)N1CCCC1)S(=O)(=O)c1cc([N+](=O)[O-])ccc1Cl

Entries of single compounds, looked up by structure. Order of values: GLA inh pH 4.5	Rango-impB inh	Rango release inh	miR-21 reporter
Cc1ccccc1-n1c(SCC(=O)NCc2cccs2)nc2ccccc2c1=O reads 5	3.9%	9%	2%
Cc1ccccc1CS(=O)(=O)CCC(=O)NCCCN1CCN(c2ccccc2F)CC1 reads 11	0.1%	1%	6%
COC(=O)c1c(C(=O)OC)c2ccncn2c1Cl reads -7	-0.9%	-6%	2%
COc1ccccc1N(CC(=O)N1CCCC1)S(=O)(=O)c1cc([N+](=O)[O-])ccc1Cl reads nt	-2.9%	4%	nt

The listing continues.
GLA inh pH 4.5 | Rango-impB inh | Rango release inh | miR-21 reporter | SMILES
3 | 1.7% | 1% | -19% | CCOC(=O)c1c(NC(=O)OC)sc(C(=O)N(C)C)c1C
-9 | -2.3% | 21% | -8% | O=S(=O)(/N=C(/Nc1ccccn1)c1ccccc1)c1ccccc1
-14 | ? | -30% | 26% | Cc1ccc(-n2cc(C(=O)c3cc(Cl)ccc3O)cc(C#N)c2=O)cc1
nt | 1.7% | -8% | nt | O=C1C(C=NCCCn2ccnc2)=C(O)c2ccccc21
-10 | 2.4% | -13% | -8% | CC1CCCCN1CC(=O)Nc1cc(S(=O)(=O)N2CCOCC2)ccc1N1CCCC1 (stereo not given)
6 | -0.2% | -10% | -17% | COC(=O)c1[nH]c2ccc(C)cc2c1NC(=O)Nc1ccccc1OC
9 | 0.9% | 0% | -2% | CC(C)(C)NC(=O)Cn1nc(C(F)(F)F)c2c1CCCC2
8 | -6.7% | -2% | -2% | NNC(=O)CCN(Cc1ccco1)S(=O)(=O)c1ccc(Cl)cc1
nt | -2.3% | 20% | 1% | C=CCc1ccc(OCC(O)CN2CCN(c3ccccc3OC)CC2)c(OC)c1 (stereo not given)
0 | 2.4% | 2% | -1% | Cc1cc2cc(CNC(=O)COc3ccccc3)ccc2n1C
6 | -0.1% | -1% | -13% | C=CCOc1cccc(C(=O)N2CCCC(CCC(=O)NCc3ccccc3F)C2)c1 (stereo not given)
nt | -0.9% | -12% | -4% | Cc1cc(C)cc(NC(=O)CCn2c(=S)[nH]c3ccccc3c2=O)c1

Additional entries follow.
GLA inh pH 4.5 | Rango-impB inh | Rango release inh | miR-21 reporter | SMILES
-2 | 0.3% | 0% | -56% | Fc1ccc(-n2nnc(-c3cccnc3Cl)n2)cc1
nt | ? | 14% | nt | CCOC(=O)Cc1csc(NC(=O)c2cc(-c3ccncc3)nc3ccccc23)n1
-5 | 3.3% | -2% | 0% | CN(C[C@H](Cc1ccccc1)N(C[C@H](Cc1ccccc1)N(CCc1cc(C(F)(F)F)cc(C(F)(F)F)c1)N=O)N=O)N=O
-3 | nt | nt | 0%&-6% | COc1ccc(C2C=C(c3ccccc3)Nc3nc(NC(C)=O)nn32)cc1 (stereo not given)
4 | 5.2% | -11% | -1% | CC(NC(=O)/C(=C\c1ccco1)NC(=O)c1ccccc1Br)C(=O)O (stereo not given)
nt | -2.6% | -14% | 6% | Cc1cc(-c2ccc(C(C)C)c(S(=O)(=O)N3CCC(C)CC3)c2)on1
2 | -0.9% | 2% | 1% | Cc1[nH]c2ccccc2c1C(c1ccncc1)N1CCN(c2ccc(F)cc2)CC1 (stereo not given)
0 | 3.2% | 2% | 0% | COc1ccc(Br)cc1CNc1ccc2[nH]c(=O)[nH]c2c1
nt | 1.8% | -6% | nt | COc1ccc(S(=O)(=O)N2CCN(CCOc3ccc(Br)cc3)CC2)cc1OC
0 | 0.1% | 15% | 0% | COc1ccc(CCNC(=O)CCc2ccc(S(=O)(=O)NCC(C)C)cc2)cc1OC
-1 | 5.6% | 24% | -20% | CC1(C)Cc2c(sc(/N=C/N3CCCCCC3)c2C#N)C(C)(C)N1
4 | 0.5% | 6% | -2% | CC(C)CC(=O)N(Cc1ccc(F)cc1)C1CCS(=O)(=O)C1 (stereo not given)

Additional entries follow:
GLA inh pH 4.5 | Rango-impB inh | Rango release inh | miR-21 reporter | SMILES
-2 | ? | ? | -50% | CCC(C)NC(=O)/C=C1\Sc2ccccc2NC1=O (stereo not given)
-5 | 3.9% | 26% | -5% | CCn1c(SCC(=O)Nc2ccc(C(=O)OC)cc2)nnc1-c1cccs1
nt | 1.5% | 6% | -11% | CCOC(=O)Cn1cnc2c(cnn2-c2ccccc2)c1=O
5 | 6.6% | 1% | -6% | CCOc1cc(C)c(C(C)C)cc1S(=O)(=O)NCc1ccccn1
nt | 0.1% | 10% | nt | Cc1nc(SCC(=O)NC2CCS(=O)(=O)C2)c2c3c(sc2n1)CCCC3 (stereo not given)
? | -3.6% | 1% | -2% | CCOC(=O)Nc1ccc(OC)cc1S(=O)(=O)N1CCCCC1
-27 | 1.2% | 7% | -1% | COc1ccccc1NC(=O)N(Cc1ccc2c(c1)OCO2)Cc1nc2ccccc2c(=O)[nH]1
-2 | -3.7% | -6% | -16% | CC(C)c1ccc(N2CC(C(=O)Nc3nccs3)CC2=O)cc1 (stereo not given)
nt | ? | ? | -1% | Cc1ccc(N=Cc2c(O)c3ccccc3n(C)c2=O)cc1
26 | 0.5% | -11% | -3% | COc1cccc(Nc2nc3cc(OC)ccc3cc2C#N)c1
1 | 0.0% | 9% | 0% | Fc1ccc(NC(=S)N2CCN(c3cccc(C(F)(F)F)c3)CC2)cc1
nt | 2.9% | -12% | 0% | CC(C)CN1CCN(CCCc2ccccc2)C(CCO)C1 (stereo not given)

Going on with the list:
GLA inh pH 4.5 | Rango-impB inh | Rango release inh | miR-21 reporter | SMILES
-24 | -6.4% | 34% | -7% | O=C(Nc1cc2cccc([N+](=O)[O-])c2oc1=O)c1cccs1
4 | 8.0% | 18% | -11% | O=C(/C=C/c1ccccc1[N+](=O)[O-])c1ccc(F)cc1
-1 | -5.0% | -15% | 2% | O=C(NCc1ccco1)c1cc([N+](=O)[O-])ccc1N1CCOCC1
nt | 1.3% | -12% | nt | O=C(Nc1ccncc1)c1ccc(N2CCCC2=O)cc1
7 | 4.6% | -1% | -6% | O=C(NCC1CCCO1)C(C(=O)c1ccccc1)n1cc(Cl)ccc1=O (stereo not given)
nt | 2.5% | -2% | -2% | O=C(NCCN1CCOCC1)c1cc(-c2ccc(Cl)s2)nc2ccccc12
nt | -1.1% | 5% | nt | O=C1NC(=O)C(c2ccccc2)(c2ccc(Cl)cc2Cl)N1 (stereo not given)
0 | ? | -11% | -1% | COc1cc2cc(CN(CCN3CCOCC3)C(=O)Nc3ccc(F)cc3)c(=O)[nH]c2cc1OC
-4 | 1.1% | -3% | -6% | Cc1nc(SCC(=O)NC(C)(C)C)c2c(-c3cccs3)csc2n1

Random excerpt: 2 entries already listed, in no set order.
GLA inh pH 4.5 | Rango-impB inh | Rango release inh | miR-21 reporter | SMILES
-24 | -6.4% | 34% | -7% | O=C(Nc1cc2cccc([N+](=O)[O-])c2oc1=O)c1cccs1
nt | -1.1% | 5% | nt | O=C1NC(=O)C(c2ccccc2)(c2ccc(Cl)cc2Cl)N1 (stereo not given)
